Vif TR-FRET – inhibitors of Vif binding to APOBEC3G peptide, primary screen, biochemical, TR-FRET, GST-Vif 1-94, biotin-A3G peptide, dose response retest (AID 1117319). Virion infectivity factor (Human immunodeficiency virus type 1 group M subtype B (isolate …. TR-FRET GST-Vif / biotin-A3G peptide binding; higher % means a stronger effect; test concentration not given here; strong numbers were not always called active. inhibition, %, or IC50 in µM where a hit was titrated. hit rate 0.57% among 260,000;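 active = above the screen mean plus three standard deviations and confirmed in dose response; inconclusive = results disagree or hit not tested in dose response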;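 also: Vif residues 1-94 fused to GST binding biotinylated APOBEC3G peptide 110-148; 0% = full assay without inhibitor and 100% = GST in place of GST-Vif; retest series ran down from 100 µM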
Beta cell apopt – inhibitors of cytokine-induced beta cell apoptosis, primary screen, luminescence; INS-1E cytokine-induced death, ATP luminescence, 48 h; percent of positive-control rescue, neutral wells zero; hit rate 0.8% among 300,000; protection from apoptosis, % (concentration not given with the values);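 active = all replicates at 75% or more, or half of them and the mean; inconclusive = half reach 75% but not the mean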;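 also: 0% = cytokine-treated negative control wells and 100% = positive control rescue; higher means more ATP so stronger rescue from cytokine killing; wells of about 40 µL received 100 nL stock; the first replicate is given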
RanGTP-Impb inh – inhibitors of RanGTP-importin-beta interaction, primary screen, biochemical, FRET, CFP-Ran, YFP-importin-beta, homogeneous | Ran GTPase (GTP-bound) - importin-beta complex | cell-free CFP-Ran/YFP-importin-beta FRET ratio | inhibition, % (no concentration beside the values) | hit rate 1.1% among 300,000;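 active = most replicates above 15%; inconclusive = exactly half above 15%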;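 also: 0% = DMSO wells and 100% = Ran loaded with GDP instead of GTP; wells of about 40 µL received 100 nL stock; the first replicate is given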
AF4-AF9 inh – inhibitors of AF4 peptide binding to AF9, primary screen, biochemical, AlphaScreen, biotin-AF4 peptide, FLAG-AF9, single point | hit rate 0.47% among 350,000 | inhibition, % at 10 µM | Protein AF-9 (Homo sapiens), P42568;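 active = every replicate reaching a set inhibition limit, whatever the replicate mean, cut at about 25% in these data; inconclusive = mean inhibition reaches that limit but some replicates miss it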;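 also: 0% = plate neutral control median and 100% = total signal loss; the record names both 10 and 1 µM as test concentration; the first replicate is given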
Target sequence (P42568 whole entry, looked up): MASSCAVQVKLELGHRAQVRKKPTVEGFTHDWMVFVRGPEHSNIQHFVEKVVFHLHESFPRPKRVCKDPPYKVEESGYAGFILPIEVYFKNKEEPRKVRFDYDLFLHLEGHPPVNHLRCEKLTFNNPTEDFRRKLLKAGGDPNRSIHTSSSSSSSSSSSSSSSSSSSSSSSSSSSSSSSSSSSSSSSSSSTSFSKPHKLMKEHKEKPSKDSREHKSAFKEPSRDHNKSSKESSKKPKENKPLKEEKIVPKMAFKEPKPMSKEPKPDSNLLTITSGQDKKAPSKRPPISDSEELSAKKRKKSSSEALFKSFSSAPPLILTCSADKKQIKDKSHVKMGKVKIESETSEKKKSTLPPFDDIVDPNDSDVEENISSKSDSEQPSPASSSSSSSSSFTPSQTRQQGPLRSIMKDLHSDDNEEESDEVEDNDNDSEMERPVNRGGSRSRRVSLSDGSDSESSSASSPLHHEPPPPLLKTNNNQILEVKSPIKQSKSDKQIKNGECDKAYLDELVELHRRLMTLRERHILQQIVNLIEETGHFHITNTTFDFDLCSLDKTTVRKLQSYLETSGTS
Bfl-1 A1 inh – caspase 3/7 activation in MEF A1-2A-BIM cells, primary screen, A1 inhibitor project, cell-based, luminescence, HTS | Caspase-Glo 3/7 luminescence, 3 h; percent of clofoctol response, vehicle zero | caspase activation, % (test concentration not listed) | hit rate 0.066% among 330,000 | AID 2462, 2010;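 active = over half of replicate activation scores above 10%, or exactly half above 10 with the replicate mean above 10; inconclusive = replicate mean below 10 yet half the replicates above 10; inactive = over half of replicates below 10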;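 also: wells of about 30 µL received 50 nL stock; many hits fall short of the cut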
Calb FLC – C. albicans growth inhibition with fluconazole, primary screen, CaCi-2 strain, Alamar Blue fluorescence; C. albicans CaCi-2 (fluconazole-resistant clinical isolate) + fluconazole, 48 h; growth inhibition, % (no concentration beside the values); hit rate 0.57% among 300,000; AID 1979, 2009;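 active = most replicates above 75%; inconclusive = exactly half above 75%; inactive = most below 75%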;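 also: all wells also contain fluconazole at 8 µg/ml as a sub-toxic cotreatment; 0% = median of DMSO wells and 100% = median of geldanamycin control wells; wells of about 8 µL received 7.5 nL stock; the first replicate is given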
T cruzi repl – inhibitors of intracellular T. cruzi growth, primary screen, luminescence, NIH3T3 host cells. T. cruzi beta-gal in NIH3T3, 90 h. inhibition, % (test concentration not listed). hit rate 1.4% among 300,000. AID 1885, 2009;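 active = mean inhibition across valid replicates above about 55%, limit read from the data; inconclusive = mean below that limit but half or more replicates reach it; inactive = mean below it, under half of replicates reach it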;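 also: signal also drops with host cell toxicity which is not excluded here; 0% = plate median of DMSO wells and 100% = zero luminescence signal; higher percent means less beta-gal luminescence so fewer parasites; stock transfer was 50 nL into about 50 µL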
rRNA inh HTS – reduced GFP signal of wild-type E. coli, primary screen, bacterial rRNA inhibitor project, GFP/RFP fluorescence, OD600, single point | E. coli WT GFP vs humanized-ribosome RFP mutants, 24 h; active compounds read low; DMSO median 0, no signal -100 | GFP signal change (wild-type ribosome), % (concentration not given with the values) | hit rate 1.6% among 350,000 | AID 720706, 2013;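 active = significant combined selectivity score with lowered wild-type GFP, culture density cut under 30%, mutant RFP and density less affected; inactive = any of these conditions unmet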; also: one replicate is shown; some compounds called inactive have numbers as strong as hits
rRNA inh HTS OD600 – second read-out of rRNA inh HTS, no call of its own (marks repeat the call); OD600 change, %; measured here: OD600 growth;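 optical density of the mix in the first replicate; 0 = DMSO median and -100 = no signal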
rRNA inh HTS RFP – also measured in rRNA inh HTS; calls as there; RFP signal change, %; measured here: RFP humanized mutant strains;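 first replicate; 0 = DMSO median and -100 = no signal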
Active calls of the source: *; ? = inconclusive; · = no result given. The list is partial (hit frequency here may not be typical).

SMILES | Vif TR-FRET | Beta cell apopt | RanGTP-Impb inh | AF4-AF9 inh | Bfl-1 A1 inh | Calb FLC | T cruzi repl | rRNA inh HTS | rRNA inh HTS OD600 | rRNA inh HTS RFP
COc1ccc(C)cc1NC(=O)C1CCN(S(=O)(=O)c2ccc3c(c2)NC(=O)CO3)CC1 | 6% | 2 | -0.9 | -2.6 | 0.9 | 18 | 12 | -8 | 0 | -8.8
Cc1ccc2nc(-c3ccccn3)[nH]c2c1 | -1% | 42 | 2.4 | 3.4 | -13 | 4 | -8 | -12 | -12 | 4.8
CCOC(=O)c1ccc(OC)c(OC)c1Cl | -2% | -2 | -4.5 | -0.1 | 1.5 | -7 | -8 | 11 | 8 | -1.1
O=C(CN1C(=O)C2C3C=CC(C3)C2C1=O)Nc1ccc2c(c1)OCCO2 (stereo unspecified) | 17% | -3 | -0.3 | · | -0.5 | 0 | -2 | · | · | ·
COc1cc(/C=C2/CC(C)OC2=O)c([N+](=O)[O-])cc1OC (stereo unspecified) | · | -2 | 0.4 | 0.8 | 0.0 | 13 | -3 | -3 | 2 | -0.9
CCCNC(=O)C/C(C)=N/NC(=O)COc1ccc(C)cc1Br | · | 2 | 1.5 | -2.0 | 0.0 | -24 | 0 | 5 | 3 | -1.7
CCOC(=O)CNC(=O)CN1C(=O)CCS(=O)(=O)c2ccccc21 | 13% | -1 | 1.1 | · | -0.4 | -2 | 4 | · | · | ·
CC(C)(C)C(=O)CC1(O)C(=O)N(Cc2ccccc2)c2ccccc21 (stereo unspecified) | -1% | -5 | 5.6 | -32 | 0.1 | -31 | -4 | -4 | -17 | 2.8
O=C(Nc1cc(S(=O)(=O)N2CCCC2)ccc1Cl)C1=COCCO1 | 3% | 0 | 2.0 | · | 0.3 | 8 | -4 | · | · | ·
COc1cccc2c(=O)n(CC(=O)N3CCc4ccccc43)ccc12 | -4% | 5 | -1.0 | 2.9 | 0.5 | 35 | -11 | 9 | 18 | -4.0
Cc1ccc(C2SCC(=O)N2Cc2ccccc2)cc1 (stereo unspecified) | 0% | -8 | -1.7 | -8.2 | 1.1 | -7 | 1 | -39 | -44 | -13
CC(c1ccon1)N(C)Cc1cn(C)nc1-c1cccc(Cl)c1 (stereo unspecified) | 2% | -4 | 5.2 | -0.5 | 0.5 | 14 | 6 | 4 | 4 | 0.3
CCOc1ccccc1OCCC(=O)N1CCN(S(=O)(=O)c2ccccc2[N+](=O)[O-])CC1 | -9% | -2 | · | 4.4 | 21* | · | · | 1 | -1 | -0.3
Cc1ccc(C2(c3noc(CN(C)CC4COCCO4)n3)CCCC2)cc1 (stereo unspecified) | -1% | -5 | -7.8 | 1.3 | 1.5 | -1 | -8 | · | · | ·
CCc1ccc(-c2nc(CS(=O)CC(=O)NCc3ccco3)c(C)o2)cc1 (stereo unspecified) | 6% | · | 1.0 | -5.2 | -0.7 | -12 | -30 | 1 | 1 | -1.1
CCc1ccccc1NC(=O)CNCC(=O)Nc1ccccc1CC | -4% | 0 | -3.3 | -0.8 | 0.2 | -11 | -5 | 10 | 14 | 1.0
CCCNC(=S)N1CCC(Cc2ccccc2)CC1 | 11% | -5 | ? | 0.8 | 0.9 | -1 | -13 | 1 | -8 | 0.3
Cc1cc[n+](CC(=O)c2cccs2)cc1 | ? | -3 | -0.3 | 5.8 | 0.7 | -12 | -25 | 7 | 9 | 1.5
COc1ccc(COC(=O)c2ccc(S(=O)(=O)N3CCC(C)CC3)cc2)cc1 | · | -4 | -1.4 | -3.4 | -1.3 | -13 | -16 | 10 | 5 | 0.3
COc1ccccc1CNC(=O)C/C(C)=N/NC(=O)Cc1ccccc1 | ? | 5 | -2.5 | · | 0.6 | 33 | -11 | · | · | ·
CC1(C)CC2(CC(c3ccccc3F)c3cc(Cl)c(O)cc3O2)NC(=S)N1 (stereo unspecified) | 0% | 8 | -0.1 | 1.9 | 0.1 | ? | 52 | -54 | -69 | -13
COc1ccc(OC)c(-n2nnnc2SCC(=O)Nc2ccc(C(=O)N3CCCCC3)cc2)c1 | 10% | -7 | 1.7 | -12 | 0.7 | -8 | 5 | -12 | -8 | -1.4
CCOc1ccc(CCNC(=O)COC(=O)c2cc(=O)[nH]c3ccccc23)cc1OCC | · | 2 | · | -2.6 | 0.0 | 0 | -8 | 17 | 22 | 0.4
CC1CC(C)CN(C(=O)c2ccc(-c3ccc([N+](=O)[O-])cc3)o2)C1 (stereo unspecified) | · | -2 | 3.0 | 7.1 | 10* | 9 | 21 | -21* | -15* | 1.4*
COc1ccc(-c2cn(Cc3ccc(C(N)=O)cc3)c(CCN)n2)cc1 | · | 2 | · | 5.8 | -0.6 | · | · | 16 | 16 | 0.8

Next compounds follow:
SMILES | Vif TR-FRET | Beta cell apopt | RanGTP-Impb inh | AF4-AF9 inh | Bfl-1 A1 inh | Calb FLC | T cruzi repl | rRNA inh HTS | rRNA inh HTS OD600 | rRNA inh HTS RFP
CSC1=NCCN1C(=O)C(C)Oc1ccccc1 (stereo unspecified) | -2% | -1 | -0.4 | -2.6 | 0.4 | -3 | -1 | 9 | 11 | -0.2
Cc1ccc(C(=O)CSc2ncn[nH]2)cc1 | ? | -1 | -3.3 | · | -1.3 | -6 | -1 | · | · | ·
Nc1nc(SCC(=O)NCCO)nc2sc3c(c12)CCCC3 | · | -2 | ? | -0.7 | 1.4 | -4 | 6 | -14 | -17 | -11
O=C(COC(=O)CNC(=O)c1ccco1)Nc1ccccc1OC(F)F | 2% | -5 | -2.1 | 5.4 | 0.3 | 2 | 3 | 5 | 8 | -5.4
CCOc1cc(/C=C2\SC(=N)N(c3nonc3N)C2=O)ccc1OCC(N)=O | ? | 0 | 0.8 | · | 1.0 | 6 | -1 | · | · | ·
O=C1CSC(c2cn(-c3ccccc3)nc2-c2cccs2)N1CC1CCCO1 (stereo unspecified) | 0% | 2 | -3.2 | · | 0.7 | 29 | 11 | · | · | ·
Cc1nc(N)sc1-c1nnc(SCC(=O)Nc2nccs2)n1C | 10% | · | 1.4 | · | -0.6 | 1 | -7 | · | · | ·
Cc1ccc(NS(=O)(=O)c2ccc(Br)s2)cc1S(=O)(=O)N1CCOCC1 | 2% | · | ? | -1.7 | 0.0 | 0 | 17 | -36 | -44 | -13
O=C(/C=C/c1ccc(S(=O)(=O)N2CCOCC2)cc1)OCC(=O)c1ccc([N+](=O)[O-])cc1 | 10% | -5 | 4.5 | -34 | 0.4 | 5 | 8 | 9 | 6 | -5.1
Cc1ccc(Nc2nnc(SC3CCOC3=O)s2)cc1 (stereo unspecified) | · | 0 | -2.7 | · | 1.3 | 21 | -19 | · | · | ·
C/C(=N/NS(=O)(=O)c1ccc(Cl)cc1)c1ccc2c(c1)OCO2 | · | 1 | -2.8 | · | -0.1 | 15 | -13 | 7 | 4 | 0.6
CCC(C)n1nnc2c(=O)oc3ccccc3c21 (stereo unspecified) | 7% | -5 | 6.4 | 7.6 | -0.1 | -19 | -9 | -3 | 4 | -8.8
CN(C(=O)c1ccc(NC(=O)Cc2cccc(NC(=O)C3CCN(C(=O)C4CCCCC4)CC3)c2)cc1)C1CCCC1 | · | 2 | · | -3.1 | 0.1 | · | · | 2 | 1 | 14
Cc1ccc2oc(-c3ccc(NC(=O)c4ccc5c(c4)OCO5)cc3)nc2c1 | 28% | · | 1.6 | · | -0.1 | 4 | 6 | · | · | ·
COc1ccc(C(=O)c2c(C)oc3ccc(O)cc23)cc1 | 2% | 1 | ? | 0.9 | 0.2 | -1 | 6 | -22* | -15* | -3.2*
CC(C)CN1CCC(=O)N([C@H](COc2ccccc2)Cc2ccccc2)CC1 | · | 6 | 3.8 | 0.8 | ? | -22 | 16 | -8 | -8 | -13
COc1ccc(S(=O)(=O)Nc2nnc(C(C)C)s2)cc1 | 0% | -10 | -1.6 | · | 1.9 | -3 | -1 | · | · | ·
Cc1ccccc1C(=O)NNC(=O)CCCCC(=O)NNC(=O)c1ccccc1C | · | -1 | 1.7 | -3.5 | -0.5 | -13 | -19 | 20 | 20 | 4.7
O=C(CCN1C(=O)/C(=C\c2cccs2)SC1=S)NC1=NCCS1 | ? | 0 | 3.9 | -2.1 | -0.9 | 1 | -5 | 9 | 6 | 13
CCOc1ccc(N(CC(=O)NC2CCCC(C)C2C)S(=O)(=O)c2c(C)noc2C)cc1 (stereo unspecified) | -3% | · | 2.6 | 6.5 | 0.4 | -4 | 22 | 3 | -3 | -5.3
O=C(NCN1CCN(c2ccccn2)CC1)c1cnccn1 | -3% | -1 | 0.9 | · | 0.4 | -4 | -2 | · | · | ·
COC(CNC(=O)C1CC(=O)N(CCc2ccccc2)C1)OC (stereo unspecified) | 21% | -5 | 2.3 | · | 0.3 | 0 | -24 | · | · | ·
CCOC(=O)COc1ccc2cc(C(=O)OCC)c(=O)oc2c1 | 1% | -5 | 1.5 | · | 0.3 | 8 | -9 | · | · | ·
CCOC(=O)C1CCN(C(=O)c2ccc(OC3CCN(C(=O)CCOC)CC3)cc2)CC1 | -4% | -1 | 1.9 | -3.9 | -0.2 | 0 | 3 | -2 | 19 | 2.8
CCOC(=O)NNC(=O)CCn1c2c(c3ccccc31)CCCC2 | -2% | -9 | -0.6 | 2.0 | -0.4 | 5 | 11 | -17* | 5.6* | -0.5*
CCN(CC)S(=O)(=O)c1ccc(OCC(=O)NCc2ccccc2)cc1 | 0% | · | 0.8 | · | 0.5 | -13 | 1 | · | · | ·
Cc1cc(=O)oc2cc(OCCCC[n+]3ccccc3)ccc12 | -5% | -2 | 0.6 | · | 0.3 | 5 | -7 | 9 | 10 | 0.6
CC1(C)CC(=O)c2sc(NC(=O)c3ccc4ncsc4c3)nc2C1 | -3% | 7 | -1.5 | -8.2 | -4.1 | 0 | -7 | -10 | -35 | -5.8
COc1ccccc1-c1noc(CSc2nc(N)cc(=O)[nH]2)n1 | 7% | 6 | 0.3 | -1.9 | 0.0 | 0 | 2 | 7 | 6 | 2.5
CCN(C(=O)CSc1nc2ccc(OC)cc2[nH]1)c1c(N)n(Cc2ccccc2)c(=O)[nH]c1=O | · | 0 | · | -0.2 | 1.2 | -8 | -6 | 8 | 5 | -0.1
